rRNA inh HTS – inhibitors of bacterial rRNA selective over humanized ribosomes | GFP signal change (wild-type ribosome), % (no concentration beside the values) | actives 1.6% (n = 350,000) | E. coli WT GFP vs humanized-ribosome RFP mutants, fluorescence, 24 h; stronger effect = lower value; DMSO median 0, no signal -100;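 active means significant combined selectivity score with lowered wild-type GFP, culture density cut under 30%, mutant RFP and density less affected; inactive means any of these conditions unmet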; further: one replicate is shown; some compounds called inactive have numbers as strong as hits
Ecoli growth – inhibitors of Escherichia coli growth; OD600, 23 h; stronger effect = lower value; OD600 absorbance (concentration not given with the values); actives 0.21% (n = 330,000);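 active means OD600 absorbance below the run mean of sample wells minus 3.6 SD, in any replicate, cut at about 0.56 in these data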;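 further: stock transfer was 300 nL into about 60 µL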
AF4-AF9 inh – inhibitors of human MLL-AF4/AF9 interaction. actives 0.47% (n = 350,000). AlphaScreen, biotin-AF4 peptide binding to FLAG-AF9. inhibition, % at 10 µM. P42568;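 active means every replicate reaching a set inhibition limit, whatever the replicate mean, cut at about 25% in these data; inconclusive means mean inhibition reaches that limit but some replicates miss it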;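 further: 0% = plate neutral control median and 100% = total signal loss; the record names both 10 and 1 µM as test concentration; the first replicate is given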
Target sequence (P42568 whole entry, looked up): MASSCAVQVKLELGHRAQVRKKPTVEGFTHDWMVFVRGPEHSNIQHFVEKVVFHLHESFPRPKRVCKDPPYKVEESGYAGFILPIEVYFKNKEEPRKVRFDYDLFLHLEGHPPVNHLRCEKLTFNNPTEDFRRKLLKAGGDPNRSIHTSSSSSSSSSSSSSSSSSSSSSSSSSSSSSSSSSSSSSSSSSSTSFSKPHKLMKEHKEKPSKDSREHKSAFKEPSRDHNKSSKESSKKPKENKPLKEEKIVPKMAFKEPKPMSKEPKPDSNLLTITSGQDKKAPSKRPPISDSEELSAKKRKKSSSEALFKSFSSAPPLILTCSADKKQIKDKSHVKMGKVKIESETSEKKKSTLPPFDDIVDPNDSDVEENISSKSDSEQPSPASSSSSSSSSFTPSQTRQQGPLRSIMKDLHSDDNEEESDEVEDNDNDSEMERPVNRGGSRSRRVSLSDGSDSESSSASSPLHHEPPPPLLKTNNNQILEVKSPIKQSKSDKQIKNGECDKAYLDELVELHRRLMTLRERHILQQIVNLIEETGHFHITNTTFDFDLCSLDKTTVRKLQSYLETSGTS
HNF4A DNA FP – change in binding of human HNF4 alpha to DNA | HNF4a-FITC DNA binding, fluorescence polarization, 1 h | activity change, % at 10 µM | actives 0.3% (n = 360,000) | AID 1224865; in the data active means activity change above about 30%, passing the limit was not always enough;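 further: controls were the assay level and a saturating level of protein; the project sought stronger binding though the title names inhibitors; some compounds called inactive have numbers as strong as hits; positive values seem to mean higher polarization but the record does not say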
ALR inh – inhibitors of human sulfhydryl oxidase ALR; P55789; purified ALR, DTT oxidation, H2O2 HRP-luminol luminescence; inhibition, % (no concentration beside the values); actives 3.8% (n = 290,000); AID 485317;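 active means mean and each replicate at 75% or more; inconclusive means only one of the two met; inactive means neither met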;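 further: stock transfer was 7.5 nL into about 7.5 µL; 0% = neutral wells and 100% = wells with inactivated enzyme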
Target sequence (P55789 whole entry, looked up): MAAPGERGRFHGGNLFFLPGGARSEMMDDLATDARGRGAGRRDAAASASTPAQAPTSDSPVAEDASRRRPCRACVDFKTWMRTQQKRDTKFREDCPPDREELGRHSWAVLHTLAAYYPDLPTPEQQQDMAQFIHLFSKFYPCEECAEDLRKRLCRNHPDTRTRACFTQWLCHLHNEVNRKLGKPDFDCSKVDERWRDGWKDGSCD
Vif TR-FRET – HIV-1 Vif–A3G interaction blockers – biochemical, TR-FRET, GST-Vif 1-94, biotin-A3G peptide, dose response retest, primary screen (AID 1117319) | TR-FRET GST-Vif / biotin-A3G peptide binding; higher % means a stronger effect; test concentration not given here; strong numbers were not always called active | one-dose inhibition, %; IC50 in µM for titrated hits | actives 0.57% (n = 260,000);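 active means above the screen mean plus three standard deviations and confirmed in dose response; inconclusive means results disagree or hit not tested in dose response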;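 further: Vif residues 1-94 fused to GST binding biotinylated APOBEC3G peptide 110-148; 0% = full assay without inhibitor and 100% = GST in place of GST-Vif; retest series ran down from 100 µM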
FGF22 binding – FGF22 (human) thermal shift binding | recombinant FGF22 thermal shift, SYPRO orange fluorescence; percent of sucrose octasulfate shift, DMSO zero | calls only at 9.99 µM | Q9HCT0 | actives 1.5% (n = 340,000) | AID 651658;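 active means melting point raised past a set limit in the mean and every replicate; inconclusive means no clear call; three in four hits are not shown here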
Target sequence (Q9HCT0 whole entry, looked up): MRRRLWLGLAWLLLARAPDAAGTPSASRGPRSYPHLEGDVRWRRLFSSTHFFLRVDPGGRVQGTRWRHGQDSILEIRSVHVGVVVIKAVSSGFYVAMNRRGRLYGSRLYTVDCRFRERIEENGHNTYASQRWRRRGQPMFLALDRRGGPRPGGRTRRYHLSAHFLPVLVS
rRNA inh HTS OD600 – second read-out of rRNA inh HTS, no call of its own (marks repeat the call); OD600 change, %; measured here: OD600 growth;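 optical density of the mix in the first replicate; 0 = DMSO median and -100 = no signal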
rRNA inh HTS RFP – also measured in rRNA inh HTS; calls as there; RFP signal change, %; measured here: RFP humanized mutant strains;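 first replicate; 0 = DMSO median and -100 = no signal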
* hit, by the source's call; i = inactive; ? = inconclusive; nt = no result given; & = joins results of further samples. A portion of the library; count on the stated rates, not on these rows.

SMILES	rRNA inh HTS	rRNA inh HTS OD600	rRNA inh HTS RFP	Ecoli growth	AF4-AF9 inh	HNF4A DNA FP	ALR inh	Vif TR-FRET	FGF22 binding
CN(C)C(=O)C[C@@H]1C[C@@H]2c3cc(NC(=O)Nc4ccccc4F)ccc3O[C@@H]2[C@@H](CO)O1	1	0	2.5	nt	14	nt	nt	nt	i
OCCOCCNc1ncnc2c1c(-c1ccccc1)cn2-c1ccccc1	-8	-21	4.1	0.69	1.5	-0.5	-7	nt	i
CCOC(=O)C1CCN(C(=O)c2cccc(S(=O)(=O)Nc3ccc(C)cc3C)c2)CC1	-19	-42	-5.7	0.68	-1.9	1.2	-2	-5%	i
COc1ccc(S(=O)(=O)N(CCCN2CCCC2=O)Cc2cc3cc(C)c(C)cc3[nH]c2=O)cc1	nt	nt	nt	0.68	nt	3.0	nt	-2%	nt
OC[C@@H]1[C@@H](c2ccc(-c3cccnc3)cc2)[C@@H]2CN(CC3CC3)CCCCN12	8	9	-4.2	nt	4.2	nt	nt	nt	i
CCOc1cc(/C=N/Nc2nc(N3CCCC3)nc(N3CCCC3)n2)ccc1O	nt	nt	nt	nt	nt	-2.7	99*	2%	nt
O=C(CC1CC1)N1CC(=O)N2[C@H](CO)[C@H](c3ccc(-c4cccnc4)cc3)[C@@H]2C1	3	8	-2.3	nt	-1.9	nt	nt	nt	i
CCN=C(Nc1ccc2c(c1)OCO2)SC1CC(=O)N(c2ccccc2F)C1=O (stereo not drawn)	nt	nt	nt	0.68	nt	0.8	3	1%	nt
CCOc1cc(/C=N/NC(=O)c2ccc(=O)n(C)c2)ccc1O	10	10	3.7	nt	-2.2	-0.1	99*	-4%	i
O=c1[nH]c(CN2CCN(S(=O)(=O)c3ccc4ccccc4c3)CC2)nc2ccccc12	4	0	0.1	0.73	0.4	0.0	0	30%	i
COc1cccc(CN2CC3(CN(C(=O)Nc4c(C)noc4C)C3)c3c([nH]c4cc(OC)ccc34)[C@@H]2CO)c1	2	10	-1.1	nt	-1.3	nt	nt	nt	i
C[C@@H]1CN([C@H](C)CO)C(=O)Cc2cc(NC(=O)c3ccncc3)ccc2O[C@@H]1CN(C)S(C)(=O)=O	5	10	2.0	nt	-3.0	nt	nt	nt	i
COCC(=O)N1CCCC(C(=O)c2ccc(-c3ccccc3)c(F)c2)C1 (stereo not drawn)	-14	-31	4.3	0.7	-3.2	-0.4	-11	-4%	i
C[C@H]1CN([C@@H](C)CO)C(=O)c2cccc(NC(=O)C3CC3)c2O[C@H]1CN(C)C	6	13	-1.2	nt	0.9	nt	nt	nt	i
O=C(Nc1cccc(C(=O)O)c1)/C(=C\c1ccc2c(c1)OCO2)NC(=O)c1ccccc1Cl	1	-3	0.4	0.73	1.1	4.8	nt	nt	i
O=C(COC(=O)c1ccc(S(=O)(=O)N2CCCCC2)cc1)NCc1ccccc1	2	4	-1.8	0.7	0.6	-1.2	1	-1%	i
CSCCC1NC(=O)NC1=O (stereo not drawn)	nt	nt	nt	0.76	nt	nt	-7	1%	nt
Cc1ccc(CN2C(=O)CCC2C(=O)NCCc2ccccc2)cc1 (stereo not drawn)	1	1	-5.4	0.69	-3.6	1.0	nt	0%	i
CC(C)CC(c1nnnn1C1CCCC1)N1CCN(c2ccccc2F)CC1 (stereo not drawn)	nt	nt	nt	0.78	nt	0.3	37	-8%&0%	nt
C[C@H]1CN([C@@H](C)CO)C(=O)c2cc(NC(=O)CCN3CCOCC3)ccc2O[C@@H]1CN(C)Cc1ccc(Cl)c(Cl)c1	-4	-14	0.5	nt	0.5	nt	nt	nt	i
O=C(Nc1cc(Cl)ccn1)C1(c2ccccc2)CC1(Cl)Cl (stereo not drawn)	-42*	-33*	-9.8*	0.62	1.7	-1.5	-3	-12%	i
O=C(Nc1cccc(Cl)c1)c1cc([N+](=O)[O-])ccc1N1CCN(CCO)CC1	-13	-11	-0.8	0.68	4.2	-0.2	0	4%	i
Cc1noc(C)c1NC(=O)N(C)C[C@@H]1Oc2ncc(C#Cc3cccc(F)c3)cc2C(=O)N([C@H](C)CO)C[C@@H]1C	-1	-6	1.3	nt	-0.8	nt	nt	nt	i
Cn1c(SCC(=O)NC2CCCCC2)nnc1-c1cccc(N)c1	nt	nt	nt	0.8	nt	-1.2	-8	-5%	nt
COc1ccc(C2Nc3ccccc3C(=O)N2Cc2ccco2)cc1CN1C(=O)c2ccccc2C1=O (stereo not drawn)	-3	-9	5.1	0.69&0.66	0.3	-2.5&-0.9	-4&-11	3%&-6%	i
Further results follow:
SMILES	rRNA inh HTS	rRNA inh HTS OD600	rRNA inh HTS RFP	Ecoli growth	AF4-AF9 inh	HNF4A DNA FP	ALR inh	Vif TR-FRET	FGF22 binding
O=C(NCCc1ccncc1)Nc1ccc(Cl)c(Cl)c1	-41	-43	-7.1	0.62	1.3	1.6	-2	2%	i
COCCn1c(SCC(=O)N(C)c2c(N)n(Cc3ccccc3)c(=O)[nH]c2=O)nnc1-c1cccc(C)c1	15	13	3.6	0.63	-0.4	1.2	-2	-3%	i
CC(=O)OCC[n+]1c(C)n(-c2ccccc2)c2ccc(Cl)cc21	17	17	-4.9	0.66	-0.6	0.8	-4	3%	i
CC1(C)CC(=O)C2=C(C1)N(c1cccnc1)C(N)=C(C#N)C2c1cccs1 (stereo not drawn)	5	4	6.6	0.7	-5.2	3.2	19	?	i
CCC(=O)c1ccc(OCC(=O)OCC(=O)NCc2cccs2)cc1	12	5	3.4	0.69	0.3	-1.2	-1	-4%	i
Cc1onc(-c2ccccc2)c1C(=O)N1CCC(CO)(Cc2ccccc2)CC1	-3	-7	-1.0	0.7	4.4	0.5	-2	nt	i
COc1ccc(Br)cc1CN(C)CC(=O)NCCc1ccccc1	-21	-21	2.1	0.69	-7.3	4.2	-5	30%	i
O=C(CC1C[C@H](C(=O)N2CCOCC2)[C@@]2(CCC3CCCC3)c3[nH]c4ccccc4c3CCN2C1=O)NCCC1=CCCCC1 (stereo partly drawn)	23	1	1.4	0.78	-0.6	-2.0	nt	-3%	i
O=C(COc1ncnc2ccccc12)Nc1ccc(S(=O)(=O)N2CCOCC2)cc1	-8	13	4.3	0.64	3.4	-1.6	-8	?	i
O=C(COC(=O)c1ccc(Cl)c(Cl)c1)NC1CCCC1	3	4	-2.4	0.68	1.1	-1.6	-9	-8%	i
COc1ccc(C2CC(c3cccs3)=NN2C(=O)CSC2=NN3CCCC(=O)N=C3S2)cc1 (stereo not drawn)	-5	-14	-2.2	0.72	14	0.7	-17	3%	i
COc1ccc2nc(NC(=O)CSc3nc(SC)ns3)sc2c1	-18	-19	3.8	0.66	-3.1	-3.8	-5	20%	i
CCC(=O)N1C[C@H](C)[C@@H](OC)CN(C)C(=O)c2cc(NC(=O)C3CCOCC3)ccc2OC[C@H]1C	2	4	2.9	nt	0.2	nt	nt	nt	i
COc1ccccc1N1CCN(C(=O)C2CCN(C(=O)c3cccc(Cl)c3)CC2)CC1	-4	-1	4.5	0.69	-15	1.1	5	nt	i
CN1C(=O)c2cc(NC(=O)C3CC3)ccc2OC[C@@H]2O[C@@H](CC(=O)NCCN3CCCC3)CC[C@H]21	0	1	-4.7	nt	0.2	nt	nt	nt	i
O=C(COC(=O)c1cc(S(=O)(=O)N2CCOCC2)ccc1O)NCC1CCCO1 (stereo not drawn)	nt	nt	nt	0.71	nt	2.7	-7	27%	nt
CCCOc1ccc(N2C(=O)CC(N3CCC(O)(c4cccc(C(F)(F)F)c4)CC3)C2=O)cc1 (stereo not drawn)	nt	nt	nt	0.69	nt	0.1	1	1%	nt
N#C[C@@H]1[C@H](c2ccccc2)[C@@H](CO)N1S(=O)(=O)c1cccc(F)c1	1	3	-1.0	nt	1.2	nt	nt	nt	i
CC1=C(C(=O)OCC(C)C)[C@]23C(=O)c4ccccc4[C@@]2(O1)OC(N)=C3C#N	nt	nt	nt	0.73	nt	0.9	-1	nt	nt
O=C(c1ccccc1)N1C(=O)C(c2ccccc2)Oc2ccccc21 (stereo not drawn)	12	-1	-1.1	0.65	-0.8	-1.3	nt	13%	i
O=C(c1csc2c1CCCCC2)N1CCN(c2ncccn2)CC1	-28	-23	-1.6	0.7	6.7	-0.9	17	7%	i
COc1cc2cc(C(c3nnnn3C(C)(C)C)N3CCC(C)CC3)c(=O)[nH]c2cc1OC (stereo not drawn)	nt	nt	nt	0.73	nt	2.3	8	30%	nt
COC(=O)c1cc(S(=O)(=O)N2CCC(C)CC2)cn1C	9	15	-1.0	0.71	-0.4	4.2	9	nt	i
C[C@H](CO)N1C[C@H](C)[C@@H](CN(C)S(C)(=O)=O)Oc2ccc(NC(=O)Nc3ccc(C(F)(F)F)cc3)cc2C1=O	0	5	-1.4	nt	2.7&1.5	-2.5	3	nt	i
COc1cccc(OCCCCN2CC(C)OC(C)C2)c1 (stereo not drawn)	nt	nt	nt	0.7	nt	-3.5	-4	5%	nt

An excerpt from above in order of the ALR inh value, rising.
SMILES	rRNA inh HTS	rRNA inh HTS OD600	rRNA inh HTS RFP	Ecoli growth	AF4-AF9 inh	HNF4A DNA FP	ALR inh	Vif TR-FRET	FGF22 binding
CC(=O)OCC[n+]1c(C)n(-c2ccccc2)c2ccc(Cl)cc21	17	17	-4.9	0.66	-0.6	0.8	-4	3%	i
O=C(c1csc2c1CCCCC2)N1CCN(c2ncccn2)CC1	-28	-23	-1.6	0.7	6.7	-0.9	17	7%	i
CC1(C)CC(=O)C2=C(C1)N(c1cccnc1)C(N)=C(C#N)C2c1cccs1 (stereo not drawn)	5	4	6.6	0.7	-5.2	3.2	19	?	i

(cont.)
SMILES	rRNA inh HTS	rRNA inh HTS OD600	rRNA inh HTS RFP	Ecoli growth	AF4-AF9 inh	HNF4A DNA FP	ALR inh	Vif TR-FRET	FGF22 binding
C[C@@H]1CN([C@@H](C)CO)C(=O)c2cc(C#C[C@@H](C)O)cnc2O[C@@H]1CN(C)C(=O)c1ccccc1F	7	6	0.8	nt	-0.1	nt	nt	nt	i
CCCn1nc2cc(C(=O)NCc3ccccc3)ccc2c1OCC	-7	1	-8.9	0.65	1.5	0.6	-4	-7%	i
NC(=O)COC(=O)c1ccc(Cl)c(S(=O)(=O)N2CCN(c3ccc(F)cc3)CC2)c1	-15	-19	3.1	0.67	-1.0	2.5	38	nt	i
CCCNC(=O)Nc1ccc2c(c1)OC[C@H](C)N(C(=O)C1CC1)C[C@H](C)[C@H](OC)CN(C)C2=O	0	1	0.2	nt	-7.4	nt	nt	nt	i
CN(C)CCCNC(=O)C[C@@H]1C=C[C@H](NS(=O)(=O)c2ccccc2)[C@@H](CO)O1	-2	-5	-2.6	nt	1.9	nt	nt	nt	i
C=CCCN(C1CCCC1)S(=O)(=O)c1ccccc1Br	-11	-10	-5.7	0.69	2.3	1.9	3	nt	i
C[C@@H]1CN([C@H](C)CO)C(=O)c2cc(NC(=O)Nc3ccc(C(F)(F)F)cc3)ccc2O[C@@H](C)CCCCO[C@@H]1CN(C)S(=O)(=O)c1ccccc1	3	21	-2.0	nt	1.0	nt	nt	nt	i
CCC(=O)N1CCc2cc(S(=O)(=O)NCCCOC)ccc21	nt	nt	nt	0.69	nt	4.9	1	26%	nt
COC(=O)c1cccc(NC(=O)C(C)(C)C)c1	-1	-5	-2.6	0.65	0.0	-0.1	-4	-7%	i
CCCCCC(=O)Nc1ccc(C2C(=O)c3ccccc3C2=O)cc1	9	16	2.6	0.62	-1.3	3.6	-30	-4%	i
CCN(CC)S(=O)(=O)c1ccc(/C=C/C(=O)NC2CCCCC2)cc1	-2	-1	0.6	0.65	-2.0	2.0	3	nt	i
Cc1ccc(C)c(OCC(=O)NNC(=O)c2ccc(=O)[nH]c2)c1	3	17	0.6	0.69	0.0	1.5	1	-6%	i

Screening results as filed in PubChem.
